Bioassay records from PubChem BioAssay.
LASV entry inh – qHTS for Inhibitors of binding or entry into cells for Lassa Virus. Lassa virus pseudotype entry inhibition, cell reporter; control for the full effect not named in the record. Potency, µM (top dose mostly 37.9 µM), for the others: at the top dose activity change, negative = inhibition, usual class: inhibitors. 300,000 tested, 1.2% active. AID 540256, 2011; active means well fitted inhibition curve with a large enough effect; inconclusive means small, poorly fitted or top-dose-only effect, or effect the other way; inactive means flat fitted curve, though single readings scatter; tested in HEK293 cells; further: on the % scale 0 is the no-effect control and ±100 the full control effect; nearly all actives have a fitted effect of over 50% in size; luciferase read-out
StopGo reporter – High Throughput Screening for Foot and Mouth Disease Virus Antivirals. human cells with a luciferase reporter of 2A StopGo recoding; control for the full effect not named in the record. Potency, µM (doses to about 57.9 µM), inactives show at the top dose signal change, negative = less light. 410,000 tested, 1.2% active; active = well fitted falling curve with a large enough effect; inconclusive = small, poorly fitted or top-dose-only effect; inactive = no such curve, though single readings can be large or run the other way; tested in HEK293T cells; further: on the % scale 0 is the no-effect control and ±100 the full control effect; nearly all actives have a fitted effect of over 45% in size; luciferase light after 4 h
SARS PLP yeast – qHTS of Yeast-based Assay for SARS-CoV PLP; Potency, µM (highest dose often 32.9 µM), inactives show top-dose activity, positive = growth rescue; S. cerevisiae expressing SARS-CoV PLpro, growth rescue; control for the full effect not named in the record; AID 485353, 2010; 330,000 tested, 0.19% active; further: 0% is about no effect; nearly all actives have a fitted effect of over 55% in size; growth read by luminescence after 48 h
Cruzain inh noDet – qHTS Assay for Promiscuous and Specific Inhibitors of Cruzain (without detergent); Cruzipain (Trypanosoma cruzi), P25779; purified cruzain, Z-FR-AMC fluorescence, no detergent; Potency, µM, for inactives: max response, negative = inhibition, usual class: inhibitors; 200,000 tested, 2.3% active; AID 1476, 2009; active means well fitted curve in the direction sought with a large enough effect; inconclusive means small, poorly fitted or top-dose-only effect, or another doubt; inactive means no such curve, though single readings can be large; an effect the other way counts as inactive or inconclusive;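 further: plate controls were enzyme without inhibitor for no effect and buffer without enzyme for full effect; nearly all actives have a fitted effect of over 40% in size; top concentration of the series not given in the record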
Target sequence (P25779 123-467 limits assumed): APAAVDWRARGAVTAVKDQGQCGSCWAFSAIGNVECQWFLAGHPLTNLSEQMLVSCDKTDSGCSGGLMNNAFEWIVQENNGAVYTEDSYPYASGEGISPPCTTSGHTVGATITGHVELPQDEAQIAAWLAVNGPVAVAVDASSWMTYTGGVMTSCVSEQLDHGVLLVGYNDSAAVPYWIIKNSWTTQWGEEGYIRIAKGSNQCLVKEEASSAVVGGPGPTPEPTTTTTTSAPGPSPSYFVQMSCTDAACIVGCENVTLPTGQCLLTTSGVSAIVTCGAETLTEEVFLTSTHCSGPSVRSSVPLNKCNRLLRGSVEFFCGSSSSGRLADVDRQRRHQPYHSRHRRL
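Purified cruzain at 1.5 nM, pre-incubated 15 min with compound at room temperature in 100 mM sodium acetate pH 5.5, 5 mM DTT, 0.00005% Triton X-100. Reaction started with 2 uM Z-FR-AMC; AMC fluorescence increase over 60 s gives rate.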
Cruzain Triton – qHTS Assay for Promiscuous and Specific Inhibitors of Cruzain (with detergent). Potency, µM, inactives show max response, negative = inhibition, usual class: inhibitors. purified cruzain, Z-FR-AMC fluorescence, 0.01% Triton. AID 1478, 2009. 200,000 tested, 0.43% active; active means well fitted curve in the direction sought with a large enough effect; inconclusive means small, poorly fitted or top-dose-only effect, or another doubt; inactive means no such curve, though single readings can be large; an effect the other way counts as inactive or inconclusive;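 further: plate controls were neutral wells for no effect and buffer without enzyme for full effect; nearly all actives have a fitted effect of over 40% in size; top concentration of the series not given in the record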
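Steps: dispense cruzain (1.5 nM final) in acetate buffer pH 5.5 with DTT and 0.01% Triton X-100; pin-transfer compounds; incubate 15 min RT; add Z-FR-AMC (2 uM final); read fluorescence every 30 s, using the 60 s intensity change.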
RE007 growth inh – qHTS Assay for Inhibitors of the HIV-1 protein Vpr | Potency, µM (titrated, usually from 92.2 µM), inactives show at the highest dose activity change, negative = less growth | AID 651644, 2012 | 360,000 tested, 0.21% active | S. pombe RE007 Vpr strain, BacTiter-Glo ATP luminescence, 24 h; control for the full effect not named in the record; active = well fitted falling curve with a large enough effect; inconclusive = small, poorly fitted or top-dose-only effect; inactive = no such curve, though single readings can be large or run the other way;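 further: on the % scale 0 is the no-effect control and ±100 the full control effect; nearly all actives have a fitted effect of over 50% in size; the assay follows cell death caused by Vpr and the record does not say whether a fall means rescue or toxicity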
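Fission yeast RE007 carrying one integrated HIV-1 vpr copy, seeded at OD 0.01 in PMG+AL medium with 23 nL pinned compound. Grown 24 h at 30 degrees; viability read by BacTiter-Glo luminescence after 5 min.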
NS1 inh – qHTS Assay for Inhibitors of Influenza NS1 Protein Function; AID 2326, 2010; Potency, µM (series often up to 46.1 µM), for inactives: at the top dose activity, positive = more growth; 270,000 tested, 0.4% active; S. cerevisiae slowed by influenza A NS1, growth recovery by OD600; further: actives are rising curves; nearly all actives have a fitted effect of over 50% in size
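Growth recovery, yeast-based: influenza A NS1 expressed in S. cerevisiae causes slow growth, and suppressors are detected by OD600. The parent strain without NS1 is used as positive control.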
MARV entry inh – qHTS for inhibitors of binding or entry into cells for Marburg Virus | Marburg virus pseudotyped entry inhibition, cell reporter; control for the full effect not named in the record; about a third of the inactives were read at about 46 µM | Potency, µM (series often up to 37.8 µM), for the others: at the highest dose activity change, negative = inhibition, actives largely listed as inhibitors | 300,000 tested, 1.8% active | AID 540276, 2011; active = well fitted inhibition curve with a large enough effect; inconclusive = small, poorly fitted or top-dose-only effect, or effect the other way; inactive = flat fitted curve, though single readings scatter; tested in HEK293 cells; about a fifth of its hits are not listed in these tables; further: on the % scale 0 is the no-effect control and ±100 the full control effect; luciferase read-out
* marks the source's active call; other numbers are inactive results; ? = inconclusive; . = no result given; & = joins results of further samples; [ ] = dose if it differs, or a comment. Unless noted, the call rests on the fitted dose curve; in most records, active means well fitted rising curve with a large enough effect; inconclusive means small, poorly fitted or top-dose-only effect; inactive means no such curve, though single readings can be large or run the other way. Potency means the concentration at half of the fitted maximal effect.

mol,LASV entry inh,StopGo reporter,SARS PLP yeast,Cruzain inh noDet,Cruzain Triton,RE007 growth inh,NS1 inh,MARV entry inh
COc1cccc(C(=O)NC2CCN(CC(=O)NCc3ccccc3F)CC2)c1,.,-8%,0%,.,.,4%,3%,2%[46.1 µM]
Cc1cccc(-c2nc3ccccc3n2Cc2ccccc2)c1,?,-29%,.,-6%,-9.0%,.,.,-28%[46.1 µM]
NC(=O)CSc1oc(-c2cccs2)nc1S(=O)(=O)c1ccc(Br)cc1,-18%[46.1 µM],9%,.,-5%,-6.0%,.,.,3%[46.1 µM]
CCCCCCOC(=O)C(C#N)c1nc2ccccc2nc1N1CCOCC1 (centres undefined),-20%,0%,0%,14%,-7.1%,0%,-44%,3%
COc1ccc(O)c(C(=O)c2cnc3onc(C(C)C)c3c2)c1,?,54%[activator],-10%,-12%,-0.8%,1%,-9%,1%
CSCCC(NC(=O)c1ccccc1Cl)C(=O)N1CCC1 (centres undefined),17%,8%,-1%,.,.,-16%,.,4%
O=C(/C=C/c1ccc(Br)cc1)NC(=S)N1C[C@H]2C[C@H](C1)c1cccc(=O)n1C2,.,0%,-5%,.,.,5%,-1%,.
Cc1ccn2c(Nc3ccccc3C)c(-c3ccc(N4CCOCC4)cc3)nc2c1,-10%[46.1 µM],2%,.,7%,-16%,.,.,?
O=[N+]([O-])c1cccnc1NCCc1ccccc1,?,29%,-1%,.,.,?,-3%,?
CCOc1ccc(C(=O)CCC(=O)N(CC)CC(=O)Nc2c(F)cccc2F)cc1,-27%,25%,5%,.,.,8%,.,-18%
CC1CCN(C(=O)CC2C(=O)Nc3c2c(=O)n(C)c(=O)n3Cc2ccccc2)CC1 (centres undefined),-11%,7%,-1%,-9%,1.4%,12%,?,23%
Nc1c(C(=O)NCCc2ccccc2)sc2nc(N3CCOCC3)c3c(c12)CCCC3,3%,16%,0%,.,.,2%,.,-17%[46.1 µM]
CCN1C(=O)CC(NNC(=O)c2ccccc2)C1=O (centres undefined),.,31%[activator],0%,.,.,13%,0%,.
Cc1cc(Br)c(NC(=O)CN2CCCC2)c(Br)c1,-3%,9%,7%,.,.,-12%,8%,4%
Cc1ccc2cc(C)c3nnc(SCC(=O)c4cccs4)n3c2c1C,?,0%,-15%,6%,-4.5%,?,-19%,3%
Cc1cc(NC(=O)c2cccc(C(=O)Nc3cc(C)on3)n2)no1,10%,0%,4%,4%,5.6%,31%,-1%,7%
CCCCn1c(=O)[nH]c(=O)c2c1nc(-c1ccc(C(F)(F)F)cc1)n2C,5%[46.1 µM],-14%,1%,.,.,-10%,5%,-1%[46.1 µM]
CSc1ccccc1OCc1cc(C(=O)N(C)C(C)c2nc(C)cs2)no1 (centres undefined),?,-7%,0%,.,.,-12%,-10%,?
O=C(NCC1CCCO1)c1ccc(NC(=O)c2cccc(Br)c2)cc1 (centres undefined),.,-4%,-2%,.,.,5%,-2%,.
Cc1cccc(CN2C(=O)c3ccccc3S(=O)(=O)c3ccc(C(=O)NCCC4=CCCCC4)cc32)c1,?,3%,.,?,0.6%,.,.,?

(continued)
mol,LASV entry inh,StopGo reporter,SARS PLP yeast,Cruzain inh noDet,Cruzain Triton,RE007 growth inh,NS1 inh,MARV entry inh
CC(C)Sc1nc(O)c(Cc2ccccc2)c(=O)[nH]1,-5%,16%,9%,-1%,1.1%,19%,-21%,1%
O=C(NC1CC1)C1=C[C@H](c2c[nH]c3ccccc23)C[C@H](OCc2ccc(CO)cc2)O1,.,-8%,0%,.,.,-4%,5%,.
COc1ccc(C2(CNC(C)=O)CCOCC2)cc1OC,.,-6%,-3%,-6%,3.6%,14%,-2%,.
CCn1cc(C=O)c2cc(S(=O)(=O)N3CCOCC3)ccc21,-3%,-11%,2%,-8%,-5.9%,10%,8%,6%
Cc1nnc2sc(SCc3cccc(Cl)c3)nn2c1=O,12%,-29%,0%,.,.,-22%,.,7%[46.1 µM]
N#CC1=C(N)OC2=C(CC/C2=C\c2ccccc2)C1c1ccccc1 (centres undefined),-26%,18µM*,-2%,?,-2.9%,-24%,0.89µM*,?
CCOC(=O)CN(C(=O)CCC(=O)Nc1cc(C)on1)C(C(=O)NC1CCCC1)c1cccnc1 (centres undefined),-1%,-24%,0%,-3%,4.7%,-5%,7%,0%
O=C(NCC(=O)N(c1cccc(F)c1)C(C(=O)NC1CCCC1)c1cccnc1)c1ccco1 (centres undefined),4%,-12%,1%,.,.,10%,-15%,-2%[46.1 µM]
Cc1ccc(COc2ccc(C)nc2[N+](=O)[O-])cc1,?,37%[activator],1%,.,.,-8%,-5%,?
Cc1ccc(NC(C(N)=O)c2c(C)[nH]c(=O)[nH]c2=O)cc1 (centres undefined),1%,-18%,7%,-10%,-0.6%,0%,1%,?
Cc1ccc2c(c1)N(CC(=O)NCCCN1C(C)CCCC1C)C(=O)c1cccnc1O2 (centres undefined),.,-16%,-5%,.,.,6%,8%,.
Cc1ccc(C)c(NC(=O)c2cc3ccccn3n2)c1,.,35%[activator],-5%,-1%,-2.7%,-9%,-11%,.
COc1ccccc1NC(=S)N1CCN(c2ccccc2F)CC1,.,21%,5%,.,.,11%,19%,.
O=C(Nc1cccc(Cl)c1Cl)c1cc(S(=O)(=O)N2CCCc3ccccc32)ccc1F,-15%[46.1 µM],-13%,.,?,0.9%,.,.,.
COC(=O)[C@H](Cc1ccccc1)NC(=O)O[C@@H]1C(=O)c2cc(Br)ccc2O[C@H]1c1cccc(OC)c1,12%,.,0%,?,-3.5%&-1.2%,.,-12%,.
CCn1c(=S)sc2c(=O)n(CC(=O)NC(C)CCc3ccccc3)c(C)nc21 (centres undefined),.,-21%,14%,.,.,-3%,-20%,.
Cc1nn(-c2ccccc2)c(N2CCCC2)c1/C=C1\N=C(c2ccc(OC(C)C)cc2)OC1=O,5%,-25%,9%,5µM*,1.4µM*,.,8%,13%
O=C(Nc1ncccn1)c1cccc(F)c1,.,1%,0%,.,.,1%,8%,.
Cc1ccc(S(=O)(=O)CCc2nnc(N)s2)cc1C,-8%,.,11%,-10%,0.3%,-4%,15%,17%
CCOC(=O)c1c(-c2ccc(C)o2)csc1NC(=S)NC(=O)c1cccs1,23µM*,-20%,-8%,25µM*,-1.2%,-3%,11%,?

(more compounds)
mol,LASV entry inh,StopGo reporter,SARS PLP yeast,Cruzain inh noDet,Cruzain Triton,RE007 growth inh,NS1 inh,MARV entry inh
NC(=O)CSc1nnc(-c2ccc(S(=O)(=O)N3CCCC3)cc2)o1,-8%,.,18%,4%,-0.2%,6%,4%[9.22 µM],-2%
COc1ccc(C)cc1NC(=O)CSc1nnc2ccc(-c3ccncc3)nn12,-16%,-24%,1%,.,.,16%,.,-12%[46.1 µM]
COc1ccc(NS(=O)(=O)c2ccc(C)c(NC(=O)c3ccc(C)c(S(=O)(=O)N4CCOCC4)c3)c2)cc1,-15%,-12%,-1%,-12%,-4.8%,-16%,?,?
O=C(Nc1ccon1)c1ccc(F)c(S(=O)(=O)N2CCCCC2)c1,-20%,-15%,-1%,.,.,-7%,?,-1%[46.1 µM]
O=C1CCCCN1CC(=O)N1CCCC(N2CCN(c3ccccc3F)CC2)C1 (centres undefined),1%[46.1 µM],1%,10%,.,.,-8%,-6%,9%[46.1 µM]
Cc1ccc(-n2c(C)nc3ncnc(-c4ccccc4)c32)cc1,-17%,-24%,-5%,3%,-1.2%,-12%,-7%,-2%
COc1ccc(S(=O)(=O)N(CC(=O)NC2CC2)c2ccc(C)cc2)cc1OC,?,16%,4%,2%,-0.8%,5%,0%,23%
O=C(CNC(=O)c1cccc(Br)c1)NCCc1nc2ccccc2[nH]1,-10%,-5%,1%,1%,3.1%,8%,-4%,3%
CCOc1ccc(-n2c(=O)c3c(C)c(C)sc3n(CC(=O)N(CC)Cc3ccccc3)c2=O)cc1,?,-21%,.,5%,-0.9%,.,.,-14%[46.1 µM]
COc1ccc(OC)c(/C=N/Nc2nncn2/N=C/c2cc(OC)ccc2OC)c1,?,-9%,-3%,?,-9.3%,-17%,-3%,?
CCCNC(=O)c1ccccc1NC(=O)c1ccc(CSc2ccccc2)cc1,?,3%,-27%,-23%,-7.4%,-8%,-33%,?
CCOCCCNC(=O)C1CCCN(c2ncnc3onc(C)c23)C1 (centres undefined),6%[46.1 µM],-27%,.,4%,-2.2%,.,.,.
O=C(O)COc1ccccc1/C=C1\SC(=O)N(Cc2ccc(F)cc2)C1=O,-5%[46.1 µM],-8%,0%,.,.,1%,6%,?
O=C1CC(=O)Nc2cc(S(=O)(=O)Nc3ccc(Cl)c(C(F)(F)F)c3)ccc2N1,.,-1%,-2%,.,.,-7%,14%,.
CCOc1cc(C2c3c(-c4cc(C)ccc4O)n[nH]c3C(=O)N2CCCOC(C)C)ccc1O (centres undefined),?,-6%,.,-4%,-18%,.,.,?
C=CCc1ccc(OCCCOc2ccc(C)cc2OC)c(OC)c1,2%,-3%,4%,8%,-3.8%,3%,-5%,-25%
O=C(NC(c1ccccc1)C(Cl)Cl)c1ccccc1 (centres undefined),7%,-3%,-22%,16%,-1.0%,-9%,-30%,?

Rows were taken by chance. Share with any hit: about 4.7%.
